KSHV LANA nucl – LANA-nucleosome interaction inhibition; FITC-LANA1-23 / chicken nucleosome fluorescence polarization; active compounds read low; z-score (concentration not given with the values); hit rate 0.3% among 51,000; AID 720717;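 active means both repeat wells score below -2 in polarization z-score versus plate sample wells, excluding overly bright wells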;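 further: 100 nL library stock added to about 30 µL; numbers are from one replicate; some results filed as inactive read as strong as hits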
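Material: Purified chicken nucleosomes with FITC-labelled LANA N-terminal peptide (1-23) | Reagent: 50 nM FITC-LANA1-23 probe | Medium: TEN-BT buffer, pH 7.5 | Times: 10–45 min incubation at room temperature | Detection: Fluorescence polarization | Replication: Duplicates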
BasE inh – inhibitors of Acinetobacter baumannii siderophore enzyme BasE; purified BasE, fluorescence polarization binding displacement; inhibition, % (test concentration not listed); hit rate 0.1% among 84,000;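 active means both replicates above 25% with normal brightness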;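 further: 0% = negative plate control signal and 100% = positive plate control signal; stock transfer was 100 nL into about 30 µL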
* hit, by the source's call; & = joins results of further samples. A portion of the library; the hit share may differ from the screen's.

The opening five compounds, to show the layout:
How did C/C(=N\NCc1cn2ccccc2n1)c1ccccc1 do in these assays?
BasE inh: 2.6

How did COc1ccc(C(C#N)N2N=C(C)CC2c2ccccc2)cc1OC (stereo unspecified) do in these assays?
KSHV LANA nucl: -0.501; BasE inh: -1.8

Results for COc1cccc(C(=O)NCC(=O)NN)c1 ?
KSHV LANA nucl: -0.458; BasE inh: 1.4

How did CCOC(=O)C1CCN(c2ccc3nncn3n2)CC1 do in these assays?
KSHV LANA nucl: 0.478; BasE inh: -1.6

Results for CCN(CC(=O)NCc1cccs1)C(=O)C1=COCCO1 ?
BasE inh: -0.2

Results, repeating the preview:
How did C/C(=N\NCc1cn2ccccc2n1)c1ccccc1 do in these assays?
BasE inh: 2.6

How did COc1ccc(C(C#N)N2N=C(C)CC2c2ccccc2)cc1OC (stereo unspecified) do in these assays?
KSHV LANA nucl: -0.501; BasE inh: -1.8

Results for COc1cccc(C(=O)NCC(=O)NN)c1 ?
KSHV LANA nucl: -0.458; BasE inh: 1.4

How did CCOC(=O)C1CCN(c2ccc3nncn3n2)CC1 do in these assays?
KSHV LANA nucl: 0.478; BasE inh: -1.6

Results for CCN(CC(=O)NCc1cccs1)C(=O)C1=COCCO1 ?
BasE inh: -0.2

What do the screens show for `CC1CN(S(=O)(=O)c2ccc(C(=O)N3CCc4ccccc43)cc2)CC(C)O1` (stereo unspecified)?
BasE inh: 0.3

How did O=C(C1CC1c1ccccc1)N1CCOCC1 (stereo unspecified) do in these assays?
KSHV LANA nucl: -0.578; BasE inh: -1.4

How did CC1CC(=O)Nc2ccccc2N1C(=O)CSc1nnc(COc2ccccc2Cl)n1C1CC1 (stereo unspecified) do in these assays?
BasE inh: -2.6

How did CCN(C(=O)C(C)Sc1nc(C)cs1)c1ccccc1 (stereo unspecified) do in these assays?
BasE inh: 1.3

Results for O=C(/C=C/c1cc(Cl)c2c(c1)OCCO2)N1CCCN(S(=O)(=O)c2ccc(F)cc2)CC1 ?
BasE inh: 4.3

How did COc1cc(N(C(=O)c2ccco2)C(C(=O)NC2CCCC2)c2ccc(C)cc2)ccc1-n1cnnn1 (stereo unspecified) do in these assays?
KSHV LANA nucl: -0.719; BasE inh: 1.0

Results for Cc1ccccc1CSCc1nnc(-c2ccccc2)o1 ?
BasE inh: 3.7

How did CCN(CC)c1ccc2cc(-c3csnn3)c(=O)oc2c1 do in these assays?
KSHV LANA nucl: 1.33; BasE inh: -12.2

Results for CC(C)(C)c1ccc(C(=O)N2CCN(c3cccc4[nH]ccc34)CC2)cc1 ?
KSHV LANA nucl: -0.286; BasE inh: 1.0

Results for CC1(C)Cc2cccc(OCC(=O)NCCCN3CCOCC3)c2O1 ?
BasE inh: -0.3

Reprinted from the part before: 2 compounds, followed by the next part.
Results for CC(C)(C)c1ccc(C(=O)N2CCN(c3cccc4[nH]ccc34)CC2)cc1 ?
KSHV LANA nucl: -0.286; BasE inh: 1.0

Results for CC1(C)Cc2cccc(OCC(=O)NCCCN3CCOCC3)c2O1 ?
BasE inh: -0.3

What do the screens show for `CCCCC1CCC(C(=O)N2CC(C(N)=O)Oc3ccccc32)CC1` (stereo unspecified)?
BasE inh: 1.0

What do the screens show for `Cc1ccc(-c2nc3cc(NC(=O)CC(C)C)ccc3o2)cc1Cl`?
KSHV LANA nucl: -0.663; BasE inh: -1.1

How did COc1ccccc1CN(C)C(=O)CN1CCN(C/C=C/c2ccccc2)CC1 do in these assays?
BasE inh: 1.0

How did Cc1csc(-c2ccc(O)cc2)n1 do in these assays?
BasE inh: 0.2

What do the screens show for `Cc1cc(/C=C/c2ccc3cc(N(C)C)ccc3[n+]2C)c(C)n1-c1ccccc1`?
KSHV LANA nucl: 0.197&3.6; BasE inh: -0.5

Results for CC1=CCC2C(=O)N(C(C)c3ccccc3)C(=O)C2C1 (stereo unspecified) ?
KSHV LANA nucl: 0.521; BasE inh: 0.8

How did O=C(/C=C/c1cccs1)N1CCN(Cc2ccc(Br)s2)CC1 do in these assays?
BasE inh: -0.8

What do the screens show for `CCN(CC)C(=S)SCc1cc(=O)n2ccsc2n1`?
BasE inh: -3.2

Results for CCN(CC)S(=O)(=O)c1ccc2c(c1)nc(SCC(=O)Nc1cccc(C)c1C)n2CC ?
BasE inh: 1.3

How did CC(C)OC(=O)CN1C(=O)C(C)(C)Oc2ccc(C(=O)Nc3ccccc3)cc21 do in these assays?
KSHV LANA nucl: 2.02; BasE inh: -4.6

How did CCC(C)(C)NC(=O)Cc1ccc(C)cc1 do in these assays?
KSHV LANA nucl: 1.5; BasE inh: -2.0

How did CCCC1COC(c2ccc(C#N)cc2)OC1 (stereo unspecified) do in these assays?
KSHV LANA nucl: 0.525; BasE inh: 4.7

How did O=C(Nc1ccccc1)C(=S)NCc1ccco1 do in these assays?
KSHV LANA nucl: 1.28; BasE inh: -0.4

Results for CCCCn1c(=O)n(C)c(=O)c2ccc(-c3ccc(Cl)cc3)nc21 ?
BasE inh: 5.0

Results for CCOC(=O)C1CCN(C(=O)COC(=O)c2ccc(C)cc2)CC1 ?
BasE inh: 2.1

Results for Cc1ccccc1Nc1nnc(SCC(=O)Nc2cc(C(C)C)no2)s1 ?
BasE inh: 1.4

What do the screens show for `Cc1ccnc(NC(=O)CCc2nnc3ccc(NCc4ccc(F)cc4)nn23)c1`?
KSHV LANA nucl: -0.494; BasE inh: -3.2

How did Cc1c(OCc2nnc(SCC(=O)Nc3nnc(C4CC4)s3)n2C)ccc2ccccc12 do in these assays?
KSHV LANA nucl: 0.189; BasE inh: 0.1

How did COc1ccccc1/C=C\C=c1/sc2nc(-c3ccco3)nn2c1=O do in these assays?
KSHV LANA nucl: 1.62; BasE inh: 1.2

What do the screens show for `O=C(Cn1cnc2onc(-c3ccc(Cl)cc3)c2c1=O)NCCCN1CCCC1`?
KSHV LANA nucl: 0.142; BasE inh: -2.2

What do the screens show for `O=C(/C=C/c1cn(-c2ccccc2)nc1-c1ccc(F)cc1)NCc1ccco1`?
BasE inh: 1.6

Results for Cc1ccc2c(CNCC(C)(C)CN(C)C)cc(=O)oc2c1 ?
BasE inh: 2.3

How did CCC(CC)c1nnc(NC(=O)CCc2c(C)noc2C)s1 do in these assays?
BasE inh: 0.3

How did CCn1c(=O)c(CNc2ccc(N3CCC(O)CC3)cc2)cc2cc(OC)ccc21 do in these assays?
KSHV LANA nucl: 1.32; BasE inh: -0.8

How did O=C1/C(=C/c2ccc(N3CCOCC3)cc2)COc2ccccc21 do in these assays?
BasE inh: -2.1

How did COC(=O)C(C)Nc1ccc(C)cc1 (stereo unspecified) do in these assays?
KSHV LANA nucl: 1.15; BasE inh: -1.2

Results for CC1(c2ccc3c(c2)OCO3)NC(=O)N(CC(=O)c2ccc3c(c2)CCC3)C1=O (stereo unspecified) ?
BasE inh: 0.2

What do the screens show for `O=P1(c2ccccc2O)COc2ccccc2OC1`?
KSHV LANA nucl: -0.834; BasE inh: 1.9

What do the screens show for `O=C(NC1CCN(c2nc(-c3ccccc3)cs2)CC1)c1cccs1`?
KSHV LANA nucl: 0.984; BasE inh: -1.5

How did O=C(CN1CCN(CC(=O)N2CCCC2)CC1)NC(=O)Nc1ccccc1F do in these assays?
BasE inh: -4.4

What do the screens show for `CN(C)Cn1c(O)c(N=NC(=O)CO/N=C/c2ccccc2)c2ccccc21`?
KSHV LANA nucl: 0.653; BasE inh: 0.1

How did O=C1NC(=O)/C(=C\c2ccccc2)S1 do in these assays?
KSHV LANA nucl: 0.433

Results for COc1cccc(OCC(=O)NC(C(=O)O)C(C)C)c1 (stereo unspecified) ?
BasE inh: -10.4

How did COc1ccccc1C(=O)Nc1cccc(Cl)c1 do in these assays?
KSHV LANA nucl: -0.617; BasE inh: 2.4

Results for CN(Cc1ccc(C(F)(F)F)cc1)C(=O)C1CC(=O)N(Cc2ccco2)C1 (stereo unspecified) ?
BasE inh: -2.5

How did CC(=O)OCC[N+](C)(C)C do in these assays?
KSHV LANA nucl: 0.902&0.52&0.657; BasE inh: -0.3

Results for O=C(Nc1ccc(O)c(C(=O)O)c1)c1ccc(Br)cc1 ?
KSHV LANA nucl: -0.677; BasE inh: 1.1

Results for COCc1cc(C)nc(N)c1C#N ?
BasE inh: 1.1

Results for O=c1cc(CN2CCCCC2)nc2sccn12 ?
BasE inh: 22.1

Results for CCCN1C(=O)/C(=C/c2ccc(CC)cc2)NC1=S ?
BasE inh: 1.8

How did CCCCN1Cc2c(n(CC(N)=O)c3cc(-c4ccccc4)nn3c2=O)C1=O do in these assays?
KSHV LANA nucl: -0.941; BasE inh: 0.8

What do the screens show for `CC(=S)Nc1ccc(C(F)(F)F)cc1`?
KSHV LANA nucl: 2; BasE inh: -0.5

How did COc1ccc(S(=O)(=O)Nc2cccc(-c3ccc(N4CCOCC4)nn3)c2)c(OC)c1 do in these assays?
KSHV LANA nucl: -0.424; BasE inh: -1.9

Results for COC(=O)CC1C(=O)NCCN1C(=O)CSc1nnnn1-c1ccc(Cl)cc1 (stereo unspecified) ?
BasE inh: 0.3

What do the screens show for `CCc1ccc2nc(C(C#N)C3=NS(=O)(=O)c4ccccc43)[nH]c(=O)c2c1` (stereo unspecified)?
BasE inh: 1.3

Overlap with the part before: 2 compounds, followed by the next part.
Results for COC(=O)CC1C(=O)NCCN1C(=O)CSc1nnnn1-c1ccc(Cl)cc1 (stereo unspecified) ?
BasE inh: 0.3

What do the screens show for `CCc1ccc2nc(C(C#N)C3=NS(=O)(=O)c4ccccc43)[nH]c(=O)c2c1` (stereo unspecified)?
BasE inh: 1.3

Results for Cc1ccc(C)c(C(=O)COC(=O)c2c(-c3ccccc3)noc2C)c1 ?
BasE inh: -0.1

How did N#Cc1c(N)n[nH]c1CCCCCN do in these assays?
BasE inh: 1.6

Results for COc1cc(C2C(C(=O)c3ccco3)=C(O)C(=O)N2CCc2ccccc2)ccc1O (stereo unspecified) ?
KSHV LANA nucl: -0.164; BasE inh: -0.4

What do the screens show for `Cc1cc2c(cc1S(=O)(=O)NCCCc1ccccc1)OCC(=O)N2`?
KSHV LANA nucl: -1.1; BasE inh: -2.6

What do the screens show for `Cc1ccc(NC(=O)Nc2ccccn2)cc1`?
KSHV LANA nucl: -0.169; BasE inh: 16.6

What do the screens show for `CCN1CCN(S(=O)(=O)c2ccc(Cl)c(C(=O)NCc3nc4ccccc4[nH]3)c2)CC1`?
BasE inh: -0.9

Results for NC1=NC(=O)C(CC(=O)OCC(=O)Nc2cc(Cl)cc(Cl)c2)S1 (stereo unspecified) ?
BasE inh: -2.4

What do the screens show for `CCn1c(CN2CCCCCC2=O)nnc1SCc1cnc(-c2ccccc2)s1`?
BasE inh: -1.1

How did COC(=O)c1ccc(OC(=O)c2ccc3c(c2)OCCO3)cc1 do in these assays?
BasE inh: -0.2

What do the screens show for `C=CCNC(=O)CN1CCN(S(=O)(=O)c2ccc(C(C)CC)cc2)CC1` (stereo unspecified)?
BasE inh: 0.2

What do the screens show for `Cc1ccc(S(=O)(=O)N(C)c2nc3ccccc3n3c(-c4ccc(Br)o4)nnc23)cc1`?
BasE inh: 1.4

How did O=C(Nc1ccccc1C(F)(F)F)c1ccncc1 do in these assays?
KSHV LANA nucl: -1.17; BasE inh: -0.8

How did O=C(NCc1cccnc1)C(F)(F)C(F)(F)C(F)(F)F do in these assays?
KSHV LANA nucl: 2.41; BasE inh: -4.7

How did CC(C)(CC(=O)Nc1ccc(F)cc1)Sc1ccc(Cl)cc1 do in these assays?
BasE inh: 2.9

How did O=C(Nc1cccc(NC(=O)C2CCCO2)c1)c1ccco1 (stereo unspecified) do in these assays?
KSHV LANA nucl: -0.0575; BasE inh: -0.5

2 compounds drawn at random from those above, as already listed:
How did CC(C)(CC(=O)Nc1ccc(F)cc1)Sc1ccc(Cl)cc1 do in these assays?
BasE inh: 2.9

How did O=C(Nc1ccccc1C(F)(F)F)c1ccncc1 do in these assays?
KSHV LANA nucl: -1.17; BasE inh: -0.8

The listing continues.
How did Cc1ccc(-n2c(=O)c3cccnc3n2CC(=O)NCCCc2ccccc2)cc1C do in these assays?
KSHV LANA nucl: -0.0965; BasE inh: -2.1

Results for Cc1cccc(N(CC(=O)NCc2ccco2)S(=O)(=O)c2ccccc2)c1C ?
KSHV LANA nucl: 0.871; BasE inh: -0.5

What do the screens show for `Cc1ccc(/C=C/C(=O)OCc2nc(N)nc(Nc3ccccc3C)n2)o1`?
BasE inh: -0.8

What do the screens show for `O=C(/C=N/O)Nc1ccc2c(c1)OCCO2`?
BasE inh: 0.2

What do the screens show for `CCc1ccc(NC(=O)C2CCN(C(=O)N3CCOc4ccccc43)CC2)cc1`?
KSHV LANA nucl: -0.108; BasE inh: -1.0

How did CCN(CC)C(=O)Nc1ccc(I)cc1 do in these assays?
KSHV LANA nucl: 0.131; BasE inh: -0.4

How did Cc1cccc(OCc2nnc(SCC(=O)NC34CC5CC(CC(C5)C3)C4)o2)c1 do in these assays?
KSHV LANA nucl: -0.007; BasE inh: 3.2

How did CCCC(=O)N(Cc1ccccc1)Cc1nc2ccccc2c(=O)[nH]1 do in these assays?
KSHV LANA nucl: 0.311; BasE inh: 2.1

Results for CC1(C)CCC[C@]2(C)C3CC(=O)OC3CCC12 (stereo partly specified) ?
KSHV LANA nucl: 0.0155; BasE inh: 1.6

How did COC(=O)c1ccc(CSc2nnc(-c3ccco3)n2C)o1 do in these assays?
BasE inh: 0.6

Results for N#CC(c1ccc(F)cc1)N1CCOCC1 (stereo unspecified) ?
KSHV LANA nucl: -1.48; BasE inh: 1.1

How did CCC1CCCCN1C(=O)Cn1c(=O)n(CCC(=O)NCc2ccco2)c(=O)c2sccc21 (stereo unspecified) do in these assays?
KSHV LANA nucl: -2.15; BasE inh: 1.1

How did COCCNC(=S)N1CCn2c1nc1ccccc12 do in these assays?
BasE inh: -2.1

How did Cc1ccc(NC(=O)CN(Cc2ccco2)Cc2ccccc2O)cc1C do in these assays?
BasE inh: -0.7

Source: PubChem BioAssay
